High-throughput results (PubChem)
Cruzain inh noDet: blocks cruzain activity in detergent-free assay; hit rate 2.3% among 200,000; Potency, µM, for inactives: max response, negative = inhibition, actives largely listed as inhibitors; AID 1476; purified cruzain, Z-FR-AMC fluorescence, no detergent; active = well fitted curve in the direction sought with a large enough effect; inconclusive = small, poorly fitted or top-dose-only effect, or another doubt; inactive = no such curve, though single readings can be large; an effect the other way counts as inactive or inconclusive;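 note: plate controls were enzyme without inhibitor for no effect and buffer without enzyme for full effect; nearly all actives have a fitted effect of over 40% in size; top concentration of the series not given in the record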
Target sequence (P25779 123-467 limits assumed): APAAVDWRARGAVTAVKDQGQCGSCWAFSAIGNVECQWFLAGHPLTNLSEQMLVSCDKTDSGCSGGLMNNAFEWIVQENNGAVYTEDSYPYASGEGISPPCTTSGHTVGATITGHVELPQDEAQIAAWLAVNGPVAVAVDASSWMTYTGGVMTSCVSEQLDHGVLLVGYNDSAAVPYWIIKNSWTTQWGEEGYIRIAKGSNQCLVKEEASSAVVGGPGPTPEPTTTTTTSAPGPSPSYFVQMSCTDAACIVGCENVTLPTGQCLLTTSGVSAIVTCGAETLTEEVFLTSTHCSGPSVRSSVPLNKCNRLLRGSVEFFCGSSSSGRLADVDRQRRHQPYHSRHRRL
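Purified cruzain at 1.5 nM, pre-incubated 15 min with compound at room temperature in 100 mM sodium acetate pH 5.5, 5 mM DTT, 0.00005% Triton X-100. Reaction started with 2 uM Z-FR-AMC; AMC fluorescence increase over 60 s gives rate.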
2A StopGo: FMDV 2A StopGo reporter, luciferase signal; human cells with a luciferase reporter of 2A StopGo recoding; control for the full effect not named in the record; Potency, µM (top dose mostly 57.9 µM), inactives show at the top dose signal change, negative = less light; hit rate 1.2% among 410,000; active = well fitted falling curve with a large enough effect; inconclusive = small, poorly fitted or top-dose-only effect; inactive = no such curve, though single readings can be large or run the other way; tested in HEK293T cells; note: % is set by controls: 0 for no effect and ±100 for the full control effect; nearly all actives have a fitted effect of over 45% in size; luciferase light after 4 h
NS1 function inh: influenza NS1 inhibition; Potency, µM (top dose mostly 46.1 µM), for inactives: at the top dose activity, positive = more growth; S. cerevisiae slowed by influenza A NS1, growth recovery by OD600; hit rate 0.4% among 270,000; AID 2326; note: actives are rising curves; nearly all actives have a fitted effect of over 50% in size
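In this qHTS, NS1 from influenza A is expressed in budding yeast, where it slows growth. Cells are switched from glucose to 2% galactose medium (pH 6.0, -URA), treated with compound, and growth recovery is read at OD600.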
Lassa entry inh: inhibitors of Lassa virus binding or cell entry. Lassa virus pseudotype entry inhibition, cell reporter; control for the full effect not named in the record. Potency, µM (titrated, usually from 37.9 µM), inactives show at the highest dose activity change, negative = inhibition, most hits filed as inhibitors. hit rate 1.2% among 300,000; active means well fitted inhibition curve with a large enough effect; inconclusive means small, poorly fitted or top-dose-only effect, or effect the other way; inactive means flat fitted curve, though single readings scatter; tested in HEK293 cells; note: % is set by controls: 0 for no effect and ±100 for the full control effect; nearly all actives have a fitted effect of over 50% in size; luciferase read-out
Marburg entry inh: Marburg virus entry inhibition; Marburg virus pseudotyped entry inhibition, cell reporter; control for the full effect not named in the record; about a third of the inactives were read at about 46 µM; hit rate 1.8% among 300,000; Potency, µM (doses to about 37.8 µM), without a hit: at the highest dose activity change, negative = inhibition, actives largely listed as inhibitors; active = well fitted inhibition curve with a large enough effect; inconclusive = small, poorly fitted or top-dose-only effect, or effect the other way; inactive = flat fitted curve, though single readings scatter; tested in HEK293 cells; about a fifth of its hits are not listed in these tables; note: % is set by controls: 0 for no effect and ±100 for the full control effect; luciferase read-out
Cruzain Triton: inhibitors of Trypanosoma cruzi cruzain with detergent; Potency, µM, for inactives: max response, negative = inhibition, actives largely listed as inhibitors; purified cruzain, Z-FR-AMC fluorescence, 0.01% Triton; AID 1478; hit rate 0.43% among 200,000; P25779; active = well fitted curve in the direction sought with a large enough effect; inconclusive = small, poorly fitted or top-dose-only effect, or another doubt; inactive = no such curve, though single readings can be large; an effect the other way counts as inactive or inconclusive;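 note: plate controls were neutral wells for no effect and buffer without enzyme for full effect; nearly all actives have a fitted effect of over 40% in size; top concentration of the series not given in the record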
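Cruzain (1.5 nM) preincubated 15 min at RT with compound in 100 mM sodium acetate pH 5.5, 5 mM DTT, 0.01% Triton X-100. Reaction started with 2 uM Z-FR-AMC; AMC fluorescence (ex 360/em 450 nm) change over 60 s gave rate.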
RE007 growth inh: less growth of the S. pombe RE007 Vpr strain | S. pombe RE007 Vpr strain, BacTiter-Glo ATP luminescence, 24 h; control for the full effect not named in the record | Potency, µM (titrated, usually from 92.2 µM), for the others: at the top dose activity change, negative = less growth | hit rate 0.21% among 360,000 | AID 651644; active = well fitted falling curve with a large enough effect; inconclusive = small, poorly fitted or top-dose-only effect; inactive = no such curve, though single readings can be large or run the other way;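 note: % is set by controls: 0 for no effect and ±100 for the full control effect; nearly all actives have a fitted effect of over 50% in size; the assay follows cell death caused by Vpr and the record does not say whether a fall means rescue or toxicity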
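Fission yeast RE007 carrying one integrated HIV-1 vpr copy, seeded at OD 0.01 in PMG+AL medium with 23 nL pinned compound. Grown 24 h at 30 degrees; viability read by BacTiter-Glo luminescence after 5 min.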
SARS PLP yeast: SARS-CoV PLP inhibition in yeast; S. cerevisiae expressing SARS-CoV PLpro, growth rescue; control for the full effect not named in the record; Potency, µM (highest dose often 32.9 µM), for the others: top-dose activity, positive = growth rescue; hit rate 0.19% among 330,000; note: 0% is about no effect; nearly all actives have a fitted effect of over 55% in size; growth read by luminescence after 48 h
Numbers without * were called inactive; ? = inconclusive; . = no result given; & = joins results of further samples; [ ] = remark or other dose. Unless noted, calls come from the whole dose curve; as a rule, active means well fitted rising curve with a large enough effect; inconclusive means small, poorly fitted or top-dose-only effect; inactive means no such curve, though single readings can be large or run the other way. Potency is the fitted concentration of half-maximal effect. Random draw from the library; about 4.7% have a hit in one of these screens.

SMILES | Cruzain inh noDet | 2A StopGo | NS1 function inh | Lassa entry inh | Marburg entry inh | Cruzain Triton | RE007 growth inh | SARS PLP yeast
CC1(C)CC(=O)C(N=Nc2ccc(OC(F)F)cc2)=C(O)C1 | . | 33%[activator] | . | 8% | ? | . | -2% | -2%
Oc1ccccc1C=NN1CCCCCC1 | . | 47%[activator] | . | ? | -1% | . | -5% | .
O=C(Cn1cnc2ccccc2c1=O)NC1CCS(=O)(=O)C1 (stereo unspecified) | . | -19% | . | 26% | 1% | . | 3% | 3%
C=CCn1c(=O)c2c(nc(-c3ccc(S(=O)(=O)O)cc3)n2C)n(C)c1=O | ? | -19%&1% | ? | ? | ? | -29% | -6%[18.4 µM] | .
O=C(NCCC1CCCCN1S(=O)(=O)c1ccccc1)C(=O)NCC1CCCO1 (stereo unspecified) | . | -13% | . | -14% | 15% | . | -1% | -3%
Cc1ccc(S(=O)(=O)N2CCCCC2)cc1C(=O)OCC(=O)N1c2ccccc2NC(=O)C1(C)C | . | -21% | . | 13%[46.1 µM] | ? | . | -14% | 1%
Cc1c(CN(C)C)c2c(n1C)C(=O)c1ccc(Br)cc1-2 | -11% | . | -5% | ? | ? | -6.0% | -2% | -3%
COc1ccc(-c2ccc(N(C)C)cc2)cc1[C@H]1[C@H]2C=CC[C@@H](C)[C@@H]2C(=O)N1Cc1ccccc1 | . | -17% | 1% | . | . | . | -3% | 1%
COc1ccccc1C1CC(=O)NC(C)=C1C(=O)OCC(C)C (stereo unspecified) | -2% | ? | 0% | ? | ? | -1.5% | -21% | 0%
CCOc1ccc(C2NC(=O)c3ccccc3O2)cc1OCC (stereo unspecified) | . | ? | 20% | 25% | -3% | . | 0% | 2%
O=C(COC(=O)Cn1cnc2ccccc2c1=O)NNC(=O)c1ccc(Br)cc1 | . | -21% | . | -1% | -8% | . | -3% | -2%
Cc1ccc(NC(=O)CN(C)C(=O)c2cn(Cc3ccccc3)nc2-c2cccnc2)cc1 | . | -7% | . | ? | ? | . | -13% | 0%
NC(=O)C1CC(=O)N(c2ccc(OCc3ccc(F)cc3)cc2)C1 (stereo unspecified) | . | 30% | 9% | 28%[46.1 µM] | ? | . | -24% | 3%
Cc1cc(=O)[nH]c(/N=C(\N)Nc2ccc(Oc3ccccc3)cc2)n1 | . | -21% | -38% | 2% | -3%[46.1 µM] | . | -9% | 7%
C=CCS(=O)(=O)c1nc2ccccc2s1 | 1% | ? | -9% | ? | -31% | 3.2% | -24% | -45%
CCCCCOc1ccc(C(=O)CCC(=O)NNC(=O)c2ccncc2)cc1 | . | -11% | . | -4% | ? | . | 6% | -3%
COc1ccc(CCN(C)C2CCCN(S(=O)(=O)C(C)C)C2)cc1OC (stereo unspecified) | . | -3% | 2% | . | . | . | ? | 2%
CC(NC(=O)c1c(O)nc2ccccn2c1=O)c1ccccc1 (stereo unspecified) | -4% | -5% | . | . | 9%[46.1 µM] | 0.1% | . | .
N#Cc1cc2ccc(N3CCOCC3)cc2cc1C#N | -9% | . | 5% | -27% | -9% | 2.6% | 1% | 0%
Nc1ncn(CC(=O)c2ccccc2)n1 | . | -1% | 3% | . | . | . | 46% | 0%

Part of the list above, with values under each structure.
Each structure is followed by: Cruzain inh noDet | 2A StopGo | NS1 function inh | Lassa entry inh | Marburg entry inh | Cruzain Triton | RE007 growth inh | SARS PLP yeast
> O=C(COC(=O)Cn1cnc2ccccc2c1=O)NNC(=O)c1ccc(Br)cc1
    . | -21% | . | -1% | -8% | . | -3% | -2%
> Cc1ccc(NC(=O)CN(C)C(=O)c2cn(Cc3ccccc3)nc2-c2cccnc2)cc1
    . | -7% | . | ? | ? | . | -13% | 0%

(further entries)
SMILES | Cruzain inh noDet | 2A StopGo | NS1 function inh | Lassa entry inh | Marburg entry inh | Cruzain Triton | RE007 growth inh | SARS PLP yeast
Cc1ccc(Cl)c2sc(NC(=O)CS(=O)(=O)c3ccc(Cl)cc3)nc12 | -19% | -16% | . | ? | . | -0.6% | . | .
COc1ccc(CN(C)C(=O)Cc2ccsc2)c(OC)c1OC | . | -8% | -1% | ? | ? | . | 5% | -1%
CCCc1c(C)nc(N2CCN(c3cccc(OC)c3)CC2)[nH]c1=O | . | -30% | 13% | -16%[46.1 µM] | ? | . | -4% | -1%
Cc1nn2c(C)c(C(=O)NCc3ccco3)cnc2c1-c1ccccc1 | 3% | -15% | . | ? | . | -11% | . | .
CSc1ncccc1C(=O)Nc1cc(Cl)ccc1N1CCOCC1 | . | 0% | . | -1% | -42% | . | 1% | .
CC(C)Sc1nnc(NC(=O)C2CC2)s1 | -1% | 29% | ? | . | . | 0.2% | 11% | -5%
Cc1ccc(CSc2nnc(C(F)(F)F)n2Cc2ccc(F)cc2)cc1 | -3% | -1% | -37% | 5% | 30% | -1.6% | -12% | -1%
C/C(=N/NC(=O)Cc1cc(=O)[nH][nH]1)c1ccc([N+](=O)[O-])cc1 | -3% | -5% | 13µM* | . | . | -7.6% | -4% | 7%
CCc1nn(CC(=O)NCc2ccco2)c(=O)c2cc3c(OC)cccc3n12 | -1% | 7% | . | . | ? | -0.1% | . | .
Cc1onc(-c2ccccc2Cl)c1C(=O)N1CCN(C=O)CC1 | . | -19% | 14% | . | . | . | 9% | 2%
CCOC(=O)CSc1nnc(CNC(=O)c2ccc(OC)cc2)n1Cc1ccccc1 | 9% | -8% | -10% | 0% | 3% | 4.7% | 17% | -1%
Cc1ccc2nc(C)cc(SCC(=O)N/N=C/c3ccco3)c2c1 | . | -11% | 9% | ? | 2%[46.1 µM] | . | 7% | -6%
CCn1c2ccccc2c2cc(/C=N/n3cnnc3)ccc21 | -7% | . | -107% | -15% | ? | -11% | 5% | -12%
CCCC(=O)NCCCc1nc2ccccc2[nH]1 | -20% | -7% | 7% | . | . | -1.3% | -7% | -7%
CC1(C)Cc2c(sc3nc[nH]c(=O)c23)CO1 | . | 9% | 5% | -8% | 9%[46.1 µM] | . | -7% | 0%
CCCN(CC(=O)Nc1ccccc1OC)C(C)C(=O)NC(C)CCc1ccccc1 (stereo unspecified) | . | 4% | 6% | -21% | -7%[46.1 µM] | . | 37% | -2%
CCOc1cc(C2NC(=O)NC(C)=C2C(=O)OCc2ccccc2)ccc1O (stereo unspecified) | -10% | . | -3% | ? | ? | 2.6% | -5% | 3%
CN(C1CCCC1)C1CCN(C(=O)CNC(=O)/C=C/c2ccc(F)cc2)CC1 | -9% | -12% | . | 1% | ? | -3.4% | -3% | 14%
CC(C)(O)C#Cc1ccc(CN2CCN(CCc3ccccc3)C(CCO)C2)s1 (stereo unspecified) | . | -13% | 4% | . | . | . | -10% | 0%
Cc1cc2c(c3oc(=O)c4ccccc4c13)CN(Cc1ccc(F)cc1)CO2 | -21% | -17% | . | 14%[46.1 µM] | -5%[46.1 µM] | -3.9% | . | .
COc1cccc(CNC(=O)Cn2nc(C)c([N+](=O)[O-])c2C)c1 | . | 6% | 10% | . | . | . | -2% | 9%
CCCCN(C(=O)c1ccc(NC2CC2)c([N+](=O)[O-])c1)c1c(N)n(CCCC)c(=O)[nH]c1=O | . | -18% | . | -27% | -33% | . | 10% | 3%
CC(C)(C)Nc1nc(SCC(=O)Nc2ccccc2Cl)nc(N2CCOCC2)n1 | . | -4% | -8% | ? | ? | . | 3% | -10%
CCOC(=O)c1c(NC(=O)c2ccc(S(=O)(=O)N3CCCC(C)C3)cc2)sc2c1CCN(C(C)C)C2 (stereo unspecified) | 14% | -18% | . | 17%[46.1 µM] | . | -0.7% | . | .
O=C(NC1(C(F)(F)F)NC(=O)N(CCc2ccccc2)C1=O)c1ccccc1Cl (stereo unspecified) | -4% | -8% | . | 7%[46.1 µM] | -13%[46.1 µM] | -5.1% | . | .
COc1cccc(CCNC(=O)c2cnc3sc(N4CCCC4)nn3c2=O)c1 | 1% | ? | . | . | 1%[46.1 µM] | -0.7% | . | .
COc1ccc(OC)c(NC(=O)C(NS(=O)(=O)c2ccc3c(c2)CCCC(=O)N3)C(C)C)c1 (stereo unspecified) | 4% | -2% | . | 11%[46.1 µM] | . | 0.3% | . | .
O=C(COC(=O)c1cnccn1)Nc1ccc(Cl)cc1C(F)(F)F | . | -17% | . | 12% | 6%[46.1 µM] | . | -4% | 1%
O=C(CN1C(=O)C2CC=CCC2C1=O)NC1CCCCC1 (stereo unspecified) | . | 7% | 4% | . | . | . | 17% | 0%
Cc1cccc(NC(=O)CSc2nc3c(oc4ccccc43)c(=O)n2-c2ccccc2)c1 | ? | -25% | ? | -4% | ? | -2.8% | 21% | 8%
Cc1ccc(-n2ncc(C(=O)N3CCCCC3)c2C2CCN(C(=O)OC(C)(C)C)CC2)cc1C | -19% | -16% | . | -22%[46.1 µM] | . | -0.7% | . | .
CN1CCN(CCOc2ccc(-c3ccccc3)cc2)CC1 | . | 19% | -1% | . | . | . | -3% | ?
Cc1nn(CCOc2ccccc2)c(=O)n1-c1c(F)cccc1F | -2% | 45%[activator] | 4% | ? | 4% | -1.0% | 0% | -2%
COC(=O)C1=NNC(C(=O)c2ccco2)C1c1ccc(OC)cc1 (stereo unspecified) | . | 0% | 6% | . | . | . | -15% | -1%
O=C(CSc1nnc(-c2cccs2)o1)OC1CCCCC1 | 3% | . | -51% | -5% | 9% | -6.9% | 2% | -2%
CSc1ccc(CNC2CC2)cc1 | -9% | . | 12% | ? | 10% | 4.0% | -10% | -2%
S=C(NCc1ccncc1)NC1CCCCC1 | . | 7% | 6% | . | . | . | 4% | 1%

A run of entries from further up:
SMILES | Cruzain inh noDet | 2A StopGo | NS1 function inh | Lassa entry inh | Marburg entry inh | Cruzain Triton | RE007 growth inh | SARS PLP yeast
CCCC(=O)NCCCc1nc2ccccc2[nH]1 | -20% | -7% | 7% | . | . | -1.3% | -7% | -7%
CC1(C)Cc2c(sc3nc[nH]c(=O)c23)CO1 | . | 9% | 5% | -8% | 9%[46.1 µM] | . | -7% | 0%
